High-throughput results: PubChem, several laboratories
LANA-H2A inh – blocks KSHV LANA binding to histone H2A/H2B | Q9QR71 | cell-free LANA-H2A/H2B peptide, fluorescence polarization | inhibition, % (test concentration not listed) | 320,000 compounds, 0.6% hits; in the data active = inhibition mostly above about 10%, no sharp cut-off; inactive = mostly below about 6.7%;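 note: stock transfer was 7.5 nL into about 10 µL; 0% = median of vehicle wells and 100% = median of positive control wells; one replicate is shown; the record names a cut of 25% in any replicate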
B2AR ag – agonists of human beta-2 adrenergic receptor inducing internalization. P07550. 340,000 compounds, 0.43% hits. Am2.2-beta2AR cells, FAP receptor internalization, flow cytometry; reference of the scale not given here. AID 504454. response, % (concentration not given with the values);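 active = response above a set limit, near 3 SD of response in nonfluorescent compounds, cut at about 42% in these data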;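 note: stock transfer was 100 nL into about 11 µL; a reference agonist was the positive control; negative values mostly stem from fluorescent compounds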
Target sequence (P07550 whole entry, looked up): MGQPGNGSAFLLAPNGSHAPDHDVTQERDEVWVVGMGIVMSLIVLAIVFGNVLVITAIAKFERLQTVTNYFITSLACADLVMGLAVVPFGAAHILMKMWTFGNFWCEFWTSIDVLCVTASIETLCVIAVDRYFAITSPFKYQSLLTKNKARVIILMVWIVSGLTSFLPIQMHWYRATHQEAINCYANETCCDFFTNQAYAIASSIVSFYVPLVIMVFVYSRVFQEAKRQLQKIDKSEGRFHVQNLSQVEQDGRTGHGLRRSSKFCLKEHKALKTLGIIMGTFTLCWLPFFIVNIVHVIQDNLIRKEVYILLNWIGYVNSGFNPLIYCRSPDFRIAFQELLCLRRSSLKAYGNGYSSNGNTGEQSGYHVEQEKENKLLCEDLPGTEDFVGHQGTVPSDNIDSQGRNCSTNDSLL
Calb FLC – affects C. albicans growth with fluconazole. growth inhibition, % (test concentration not listed). 300,000 compounds, 0.57% hits. C. albicans CaCi-2 (fluconazole-resistant clinical isolate) + fluconazole, Alamar Blue growth, 48 h;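 active = most replicates above 75%; inconclusive = exactly half above 75%; inactive = most below 75%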;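 note: all wells also contain fluconazole at 8 µg/ml as a sub-toxic cotreatment; 0% = median of DMSO wells and 100% = median of geldanamycin control wells; wells of about 8 µL received 7.5 nL stock; the first replicate is given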
RanGTP-Imp inh – disruptors of Ran-importin-beta complex formation – biochemical, FRET, CFP-Ran, YFP-importin-beta, homogeneous, primary screen. cell-free CFP-Ran/YFP-importin-beta FRET ratio. inhibition, % (test concentration not listed). 300,000 compounds, 1.1% hits;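 active = most replicates above 15%; inconclusive = exactly half above 15%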;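 note: 0% = DMSO wells and 100% = Ran loaded with GDP instead of GTP; wells of about 40 µL received 100 nL stock; the first replicate is given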
ALR inh – inhibitors of human sulfhydryl oxidase ALR; 290,000 compounds, 3.8% hits; purified ALR, DTT oxidation, H2O2 HRP-luminol luminescence; AID 485317; inhibition, % (no concentration beside the values);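 active = mean and each replicate at 75% or more; inconclusive = only one of the two met; inactive = neither met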;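 note: stock transfer was 7.5 nL into about 7.5 µL; 0% = neutral wells and 100% = wells with inactivated enzyme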
Target sequence (P55789 whole entry, looked up): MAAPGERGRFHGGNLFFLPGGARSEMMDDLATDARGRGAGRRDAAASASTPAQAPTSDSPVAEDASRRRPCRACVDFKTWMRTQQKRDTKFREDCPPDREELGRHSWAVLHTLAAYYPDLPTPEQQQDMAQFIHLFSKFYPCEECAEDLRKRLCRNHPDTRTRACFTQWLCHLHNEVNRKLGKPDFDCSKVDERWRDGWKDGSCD
Vif A3G – inhibitors of Vif binding to APOBEC3G peptide, primary screen, biochemical, TR-FRET, GST-Vif 1-94, biotin-A3G peptide, dose response retest (AID 1117319); TR-FRET GST-Vif / biotin-A3G peptide binding; higher % means a stronger effect; test concentration not given here; strong numbers were not always called active; one-dose inhibition, %; IC50 in µM for titrated hits; 260,000 compounds, 0.57% hits;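 active = above the screen mean plus three standard deviations and confirmed in dose response; inconclusive = results disagree or hit not tested in dose response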;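 note: Vif residues 1-94 fused to GST binding biotinylated APOBEC3G peptide 110-148; 0% = full assay without inhibitor and 100% = GST in place of GST-Vif; retest series ran down from 100 µM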
HNF4A DNA FP – change in binding of human HNF4 alpha to DNA; activity change, % at 10 µM; P41235; AID 1224865; HNF4a-FITC DNA binding, fluorescence polarization, 1 h; 360,000 compounds, 0.3% hits; in the data active = activity change above about 30%, passing the limit was not always enough;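 note: controls were the assay level and a saturating level of protein; the project sought stronger binding though the title names inhibitors; some compounds called inactive have numbers as strong as hits; positive values seem to mean higher polarization but the record does not say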
Target sequence (P41235 whole entry, looked up): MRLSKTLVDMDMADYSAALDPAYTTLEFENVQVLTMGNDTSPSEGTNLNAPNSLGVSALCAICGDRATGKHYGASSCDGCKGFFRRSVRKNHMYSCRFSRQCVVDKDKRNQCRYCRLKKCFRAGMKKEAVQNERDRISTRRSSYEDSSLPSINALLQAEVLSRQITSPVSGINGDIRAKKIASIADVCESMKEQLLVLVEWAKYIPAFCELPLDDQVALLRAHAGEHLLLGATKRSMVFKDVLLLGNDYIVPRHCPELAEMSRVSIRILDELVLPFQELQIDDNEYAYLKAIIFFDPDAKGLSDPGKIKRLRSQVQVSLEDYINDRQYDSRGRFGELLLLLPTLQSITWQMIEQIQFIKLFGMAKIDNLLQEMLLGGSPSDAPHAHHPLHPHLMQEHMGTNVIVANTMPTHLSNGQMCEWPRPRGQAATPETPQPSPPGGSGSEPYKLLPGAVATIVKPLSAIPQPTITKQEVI
Numbers without * were called inactive; & = joins results of further samples.

`O=C(NC(CSCc1ccccc1)C(=O)N/N=C/c1ccc(O)cc1O)c1ccc([N+](=O)[O-])cc1` (stereo not given) gave LANA-H2A inh -0.6, B2AR ag -1.5, Calb FLC 0.7, RanGTP-Imp inh -4.1, ALR inh 15.7, Vif A3G 1.9%&12.4% and HNF4A DNA FP -1.9.
Screening CC1(C)CN=c2s/c(=C\c3ccc(Cl)cc3)c(=O)n2C1 returned LANA-H2A inh 4.1, B2AR ag -6.7, Calb FLC 6.4, RanGTP-Imp inh -2.3, ALR inh 96.9*, Vif A3G 13.1% and HNF4A DNA FP 3.9.
For Cc1nc(N2CCN(C(=O)COc3ccccc3)CC2)c2c(C)c(C)sc2n1 the results were LANA-H2A inh 2.4, B2AR ag 8.8, Calb FLC 8.2, RanGTP-Imp inh -1.9, Vif A3G -1.3% and HNF4A DNA FP 1.1.
`CCc1c(C)nc2ncnn2c1Nc1ccc(C(C)=O)cc1` gave LANA-H2A inh 7.4, B2AR ag -10.7, Calb FLC -2.1, RanGTP-Imp inh -1.1, ALR inh -26.6, Vif A3G 21.1% and HNF4A DNA FP 5.2.
O=C1c2ccccc2CCc2ccc(Br)cc21 was read as LANA-H2A inh -0.4, B2AR ag -1.7, ALR inh -20.0 and HNF4A DNA FP -1.7.
`O=C(C[n+]1cc(-c2ccc(F)cc2)n2c1CCC2)N1c2ccccc2Sc2ccccc21` gave LANA-H2A inh 5.3, B2AR ag 10.6, Calb FLC 23.5, RanGTP-Imp inh 8.8, ALR inh -1.0, Vif A3G -8.0% and HNF4A DNA FP -0.6.
For CCN(CC)S(=O)(=O)c1cccc(-c2nnc(SC(C)C(N)=O)n2CCc2ccccc2)c1 (stereo not given) the results were LANA-H2A inh 2.5, B2AR ag -5.6, Calb FLC -5.0, RanGTP-Imp inh -1.0, Vif A3G 5.3% and HNF4A DNA FP 0.5.
COc1ccc(N2CCN(C(=O)CNC(=O)c3ccc4ccccc4c3)CC2)cc1 was read as LANA-H2A inh -292.0, B2AR ag -2.0, ALR inh 1.0, Vif A3G -4.7% and HNF4A DNA FP -3.2.
COc1ccc(N2CCN(C(=O)CCNS(=O)(=O)c3ccc4c(c3)CCC(=O)N4)CC2)cc1 was read as LANA-H2A inh -2.0, B2AR ag -6.7, ALR inh 43.4, Vif A3G 16.0% and HNF4A DNA FP -2.5.
Screening O=C(COC(=O)COc1ccc(Cl)cc1Br)NCc1cccs1 returned LANA-H2A inh -1.4, B2AR ag 2.1, Calb FLC inconclusive, RanGTP-Imp inh 0.2, ALR inh -10.8, Vif A3G -5.8% and HNF4A DNA FP 2.7.
`CC1CCc2sc(C(=O)NNC(=O)c3ccncc3)cc2C1` (stereo not given) gave LANA-H2A inh 0.0, B2AR ag -3.2, Calb FLC -2.8, RanGTP-Imp inh 4.6, Vif A3G -3.0% and HNF4A DNA FP -2.5.
`CCC(=O)C1CCCN(C(=O)c2ccc(OC3CCN(C(=O)c4cccnc4)CC3)cc2)C1` (stereo not given) gave LANA-H2A inh -1.8, B2AR ag -2.5, Calb FLC -1.1, RanGTP-Imp inh 1.7, Vif A3G -2.7% and HNF4A DNA FP 0.6.
Screening CCOc1ccc(-c2nnn(CC(=O)c3ccc4c(c3)OCCO4)n2)cc1 returned LANA-H2A inh -1.1, B2AR ag 5.1, Calb FLC -22.3, RanGTP-Imp inh inconclusive, ALR inh -3.1, Vif A3G -11.1% and HNF4A DNA FP 15.3.
For COc1ccc(NC(=S)NC23CN4CN(CN(C4)C2)C3)cc1 the results were LANA-H2A inh 0.3, B2AR ag -2.5, Calb FLC 9.5, RanGTP-Imp inh 0.0, ALR inh 3.5, Vif A3G -3.6% and HNF4A DNA FP -1.9.
`O=C(NCC1CCCO1)c1nnc(Cc2ccc(F)cc2)o1` (stereo not given) gave LANA-H2A inh 0.6, B2AR ag -1.7, Calb FLC -6.1, RanGTP-Imp inh inconclusive, Vif A3G -1.6% and HNF4A DNA FP -2.9.
Screening COc1cccc(-c2nnc(-c3ccc4ccccc4c3)o2)c1 returned B2AR ag -6.7, Vif A3G -4.4% and HNF4A DNA FP -7.0.
For O=C(Nc1c2c(nn1-c1ccc(F)cc1)CS(=O)C2)c1ccc(Br)o1 (stereo not given) the results were LANA-H2A inh -1.4, B2AR ag -6.5, Calb FLC -1.3, RanGTP-Imp inh 3.5, ALR inh -8.1, Vif A3G -1.3% and HNF4A DNA FP 2.1.
Screening Cc1cccc(NC(=O)CCCc2ccccc2)c1C returned LANA-H2A inh 0.6, B2AR ag 2.4, Calb FLC 0.6, RanGTP-Imp inh -2.3, ALR inh -8.7, Vif A3G 3.5% and HNF4A DNA FP 2.1.
`Cc1ccc(CNC(=O)C2(C(F)(F)F)C/C(=C\Cc3ccccc3)CCCO2)o1` (stereo not given) gave LANA-H2A inh 0.8, B2AR ag 7.7, Calb FLC 1.3, RanGTP-Imp inh -6.4 and HNF4A DNA FP 4.9.
For CC1CN(C(=O)c2ccc(NS(=O)(=O)c3ccc(F)cc3)cc2)CC(C)O1 (stereo not given) the results were LANA-H2A inh -5.7, B2AR ag 4.1, Calb FLC 5.8, RanGTP-Imp inh -2.5, ALR inh -1.1 and HNF4A DNA FP 0.0.
For Cc1nc(CS(=O)(=O)c2ccccc2)cc(N2CCN(c3ccccc3F)CC2)n1 the results were LANA-H2A inh 4.7, B2AR ag 2.9, Calb FLC 10.1, RanGTP-Imp inh 1.9, Vif A3G -8.2% and HNF4A DNA FP -0.8.
`O=C(Nc1nccs1)c1cncc(Br)c1` gave LANA-H2A inh -2.4, B2AR ag -5.5, Calb FLC 15.6, RanGTP-Imp inh 3.6, ALR inh 31.3 and HNF4A DNA FP 3.9.
Cc1nc2c(C)cccn2c(=O)c1NC(=O)c1cccs1 was read as LANA-H2A inh -1.7, B2AR ag -2.5, Calb FLC -9.6, RanGTP-Imp inh 3.6, ALR inh 3.8, Vif A3G 7.8% and HNF4A DNA FP -4.6.
Screening Cc1ccc(/C=N/Nc2ccnc3cc(Cl)ccc23)c(C)c1 returned LANA-H2A inh -0.9, B2AR ag 18.9, Calb FLC -7.0, RanGTP-Imp inh -4.6, ALR inh -2.0 and HNF4A DNA FP 6.2.
`COc1cccc(NC(=O)N2CCC(NC(=O)c3ccco3)CC2)c1` gave LANA-H2A inh 1.2, B2AR ag 6.6, Calb FLC -2.6, RanGTP-Imp inh -3.7, ALR inh -8.4 and HNF4A DNA FP 2.1.
COc1cccc(CNS(=O)(=O)c2cn(C)cn2)c1 was read as LANA-H2A inh -2.8, B2AR ag -0.8, Calb FLC -3.7, RanGTP-Imp inh -3.1, ALR inh 5.2, Vif A3G inconclusive and HNF4A DNA FP 0.3.
`O=C(/C=C/c1ccccc1)Nc1cc(S(=O)(=O)N2CCOCC2)ccc1N1CCOCC1` gave B2AR ag 8.7, Vif A3G 8.3% and HNF4A DNA FP -2.7.
For CC(=O)N/C(=C\c1ccccc1Cl)C(=O)O the results were LANA-H2A inh 1.5, B2AR ag 2.7, Calb FLC -9.3, RanGTP-Imp inh 4.6, Vif A3G 7.4% and HNF4A DNA FP -0.4.
Screening Cc1ccc(C)c(N(C(=O)CNC(=O)c2ccco2)C(C(=O)NC2CCCCC2)c2cccnc2)c1 (stereo not given) returned LANA-H2A inh 5.0, B2AR ag -7.4, Calb FLC 3.7, RanGTP-Imp inh -0.5, ALR inh -0.1 and HNF4A DNA FP 2.0.
Screening N#CC1=C(N)N(c2ccccc2C#N)C2=C(C(=O)CCC2)C1c1ccsc1 (stereo not given) returned LANA-H2A inh 1.4, B2AR ag -4.0, Calb FLC -3.8, RanGTP-Imp inh 29.6*, ALR inh -24.4, Vif A3G 9.0% and HNF4A DNA FP -6.2.
O=C(Nc1nccs1)c1nc[nH]c1C(=O)N1CCN(c2ccccc2)CC1 was read as LANA-H2A inh 7.6, B2AR ag -9.1, ALR inh 4.4 and HNF4A DNA FP 0.9.
Screening O=C(CCN1CCOCC1)NNC(=O)/C(=C/c1ccccc1)NC(=O)c1ccccc1 returned LANA-H2A inh -3.0, B2AR ag 4.8, Calb FLC -21.7, RanGTP-Imp inh -0.7, ALR inh -0.5, Vif A3G -0.8% and HNF4A DNA FP -1.4.
`O=C(CS(=O)CC(=O)N(CC(=O)NC1CCCC1)c1ccc2c(c1)OCCO2)Nc1ccc(F)cc1` (stereo not given) gave LANA-H2A inh -2.0, B2AR ag 1.4, Calb FLC inconclusive, RanGTP-Imp inh 2.8, ALR inh -5.2, Vif A3G 21.0% and HNF4A DNA FP 5.1.
CCc1nc2ccc(C(=O)N3CCN(c4ccccc4)CC3)cc2nc1CC was read as LANA-H2A inh -2.8, B2AR ag -3.6, Calb FLC 11.3, RanGTP-Imp inh 5.4, ALR inh 27.2, Vif A3G -4.5% and HNF4A DNA FP 1.5.
For Cc1nc(-c2ccc(C(=O)Nc3cccc(Br)c3)cc2)cs1 the results were LANA-H2A inh -0.9, B2AR ag 1.8, Calb FLC 18.8, RanGTP-Imp inh -0.7, ALR inh -2.5, Vif A3G -25.0% and HNF4A DNA FP 0.8.
`O=C(OCC(=O)N1CCCc2ccccc21)c1cc(Br)ccc1O` gave LANA-H2A inh -6.2, B2AR ag -3.3, Calb FLC 0.9, RanGTP-Imp inh 2.0, Vif A3G -38.7% and HNF4A DNA FP 1.3.
O=C(Nc1ccc2c(c1)CCC2)c1ccc(F)cc1 was read as LANA-H2A inh 7.2, B2AR ag -1.4, Calb FLC 19.6, RanGTP-Imp inh 3.3, ALR inh 1.6, Vif A3G -5.2% and HNF4A DNA FP 2.2.
C=CCn1c(SCCOc2ccc(OC)cc2)nnc1C(C)NC(=O)c1ccc(OC)cc1 (stereo not given) was read as LANA-H2A inh -4.1, B2AR ag 1.2, Calb FLC -28.0, RanGTP-Imp inh -3.4, ALR inh 3.2, Vif A3G 31.7% and HNF4A DNA FP -3.8.
Screening CCCNS(=O)(=O)c1cccc(C(=O)OCc2cc(=O)oc3cc(OC)ccc23)c1 returned LANA-H2A inh 5.4, B2AR ag 24.2, Calb FLC 1.9, RanGTP-Imp inh 1.8 and HNF4A DNA FP 0.3.
For CC(=O)NC(Cc1ccccc1F)C(=O)NC1CCN(C(=O)Nc2ccc(C)cc2)CC1 (stereo not given) the results were LANA-H2A inh 4.0, B2AR ag 3.4, Calb FLC 0.8, RanGTP-Imp inh 0.6, Vif A3G -2.1% and HNF4A DNA FP 0.2.
COCCN(CCOC)S(=O)(=O)c1ccc(C(=O)Nc2sc3c(c2C(N)=O)CCCCC3)cc1 was read as LANA-H2A inh 3.9, B2AR ag inactive, Calb FLC -8.7, RanGTP-Imp inh -2.4, ALR inh 90.6*, Vif A3G 3.9% and HNF4A DNA FP -1.2.
Cc1cc(NC(=O)CSc2nc3cc(Cl)ccc3o2)no1 was read as LANA-H2A inh -0.2, B2AR ag -1.6, Calb FLC -2.3, RanGTP-Imp inh -0.1, ALR inh -5.8 and HNF4A DNA FP 3.2.
For COc1ccc(N2C(=O)C(C)C(Cc3ccc(C)cc3)C2=O)cc1 (stereo not given) the results were LANA-H2A inh 1.8, B2AR ag -9.8, Calb FLC -5.1, RanGTP-Imp inh 0.3, ALR inh -3.7 and HNF4A DNA FP -1.4.
O=C(c1ccco1)N1CCN(S(=O)(=O)c2ccc3c(c2)CCN3C(=O)C2CCC2)CC1 was read as LANA-H2A inh 5.2, B2AR ag -11.2, Calb FLC -2.9, RanGTP-Imp inh 4.6, ALR inh 1.4, Vif A3G 1.2% and HNF4A DNA FP -0.2.
COc1cc2c(cc1OC)C(c1ccc(C)o1)CC(=O)N2 (stereo not given) was read as LANA-H2A inh -1.4, B2AR ag 0.2, Calb FLC -0.7, RanGTP-Imp inh 6.1, ALR inh -7.5, Vif A3G 15.0% and HNF4A DNA FP -2.5.
